High-throughput results (PubChem)
ClpP mod: qHTS Assay for Activators of ClpP; AID 651965, 2013; ATP-dependent Clp protease proteolytic subunit (Bacillus subtilis (strain 168)), P80244; purified B. subtilis ClpP, FRET peptide cleavage, 20 min; Potency, µM (titrated, usually from 57.5 µM), for the others: at the highest dose activity change, negative = active; hit rate 1.9% among 340,000; active = well fitted falling curve with a large enough effect; inconclusive = small, poorly fitted or top-dose-only effect; inactive = no such curve, though single readings can be large or run the other way; note: potency is the fitted concentration of half-maximal effect; the source files actives as falling curves though it sought activators and does not explain the sign; nearly all actives have a fitted effect of over 65% in size; many hits overshoot -100%
Target sequence (P80244 whole entry, looked up): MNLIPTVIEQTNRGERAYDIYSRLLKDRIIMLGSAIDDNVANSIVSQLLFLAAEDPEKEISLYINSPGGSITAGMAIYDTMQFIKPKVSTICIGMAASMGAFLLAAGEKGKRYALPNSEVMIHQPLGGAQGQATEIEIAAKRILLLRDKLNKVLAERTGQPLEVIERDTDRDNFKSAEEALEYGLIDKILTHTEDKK
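Purified B. subtilis ClpP, 10 microg/mL final in Tris/HCl pH8 with KCl, BSA, glycerol and Tween-20, cleaved an Abz/nitrotyrosine-quenched decapeptide. Fluorescence (ex 320, em 430) was read at 0 and 20 min at room temperature. Delta was normalized to 5.8 microM ADEP and DMSO/no-enzyme controls.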
PINK1 expr mod: changes PINK1 expression. PINK1 immunofluorescence, high-content cytometry, 24 h. Potency, µM (top dose mostly 76.6 µM), for the others: at the highest dose activation (PINK1 increase), most hits filed as activators. hit rate 0.2% among 410,000. AID 624263; active = well fitted activation curve with a large enough effect; inconclusive = small, poorly fitted or top-dose-only effect; inactive = flat fitted curve, though single readings scatter; cell line not stated here;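 note: potency is the fitted concentration of half-maximal effect; % of control where 0% means no effect; nearly all actives have a fitted effect of over 65% in size; a mitochondrial uncoupler was the plate control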
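Readout is PINK1 immunofluorescence, quantified alongside mitochondrial, cell and nuclear markers by laser-scanning microplate cytometry. Cells from a stable line were exposed to compound titrations (5 concentrations) for 24 hours, with CCCP controls.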
Sfp PPTase inh: blocks B. subtilis Sfp PPTase activity | Q9F4F7 | hit rate 3.5% among 310,000 | Biochemical Sfp PPTase activity, qHTS | Potency, µM, for inactives: max response, negative = inhibition, most hits filed as inhibitors; active = well fitted inhibition curve with a large enough effect; inconclusive = small, poorly fitted or top-dose-only effect, or another doubt; inactive = no such curve, though single readings can be large or run the other way;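 note: the enzyme is Sfp with the accession as filed and its product quenches rhodamine fluorescence; potency is the fitted concentration of half-maximal effect; 0% = enzyme reaction without inhibitor and -100% = no enzyme wells; top concentration of the series not given in the record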
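Compounds were incubated with enzyme (final 15 nM) for 15 min at room temperature before substrate addition started the reaction. Fluorescence at 525 nm excitation, 598 nm emission was recorded immediately and after 30 minutes.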
TRPML1 agonist: human mucolipin-1 channel agonism; Q9GZU1; TRPML1-expressing cells, Ca2+ dye fluorescence, FDSS; host cell line not named in the record; reference of the full effect not given here; activation, % (concentration not given with the values); hit rate 0.12% among 410,000; AID 624414; in the data active = activation above about 50%; inconclusive = about 30% to 50%; inactive = below about 30%; note: 0% is about no effect; the text of the record puts the active cut at 80%
Target sequence (Q9GZU1 whole entry, looked up): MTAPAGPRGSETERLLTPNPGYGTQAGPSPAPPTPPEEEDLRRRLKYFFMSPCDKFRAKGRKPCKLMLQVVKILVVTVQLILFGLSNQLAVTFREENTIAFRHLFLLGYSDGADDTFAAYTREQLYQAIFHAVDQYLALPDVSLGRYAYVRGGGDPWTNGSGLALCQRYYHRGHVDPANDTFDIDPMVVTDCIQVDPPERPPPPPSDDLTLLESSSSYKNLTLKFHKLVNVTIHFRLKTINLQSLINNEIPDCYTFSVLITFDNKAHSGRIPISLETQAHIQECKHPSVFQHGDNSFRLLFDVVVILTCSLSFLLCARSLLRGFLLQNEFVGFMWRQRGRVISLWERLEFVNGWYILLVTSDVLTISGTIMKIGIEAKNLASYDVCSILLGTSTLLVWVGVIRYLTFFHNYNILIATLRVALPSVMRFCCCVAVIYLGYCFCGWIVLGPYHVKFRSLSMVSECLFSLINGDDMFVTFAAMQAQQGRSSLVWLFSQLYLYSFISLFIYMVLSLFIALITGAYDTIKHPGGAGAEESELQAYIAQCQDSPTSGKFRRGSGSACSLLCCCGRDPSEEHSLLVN
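Calcium fluorescence on an FDSS kinetic reader gave the read-out. Tet-induced TRPML1-DL cells were plated overnight, dye-loaded (Ca8 with quencher, 45-90 min, room temperature, dark), then read 110 s after compound addition, and again 110 s after 4uM final 54-4 (EC80).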
TRPML1 blocker: inhibitors of human TRPML1 channel. Q9GZU1. TRPML1-inducible cells, Ca2+ dye fluorescence, FDSS; stronger effect = lower value; inhibition of EC80 agonist-evoked calcium signal. activity change, negative = inhibition, % (concentration not given with the values). hit rate 0.02% among 390,000; in the data active means activity change below about -50%; inconclusive means about -30% to -50%; inactive means above about -30%;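 note: stimulus is agonist 54-4 at its EC80 concentration; % is set by controls: 0 for no effect and ±100 for the full control effect; compound concentration not given in the record; the text of the record puts the active cut at -80%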
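Tet-induced TRPML1-DL cells loaded with Ca8 no-wash calcium dye were read kinetically on FDSS. Compound addition was followed by EC80 agonist 54-4 (4 uM final); inhibition was read over 110 s.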
Menin MLL FP FL: inhibitors of human menin-MLL interaction, wild-type MLL peptide; FP activity change, % at 61.4 µM; 290,000 tested, under 10 active; AID 1766; Fluorescence polarization, fluorescein-MLL peptide displacement from menin; inconclusive = falling polarisation curve, or a change in total fluorescence; inactive = total fluorescence flat and polarisation flat or rising; no compound was filed as active; the % refers to the polarisation; negative = inhibition;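 note: % of control where 0% means no effect; inhibitors lower the polarisation; unlabelled MLL peptide was the positive control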
TRPV1 PAM: human TRPV1 potentiation | TRPV1-expressing cells, Fluo-8 calcium influx, capsaicin EC20 potentiation; host cell line not named in the record; control for the full effect not named in the record | potentiation, % at 8.33 µM | hit rate 0.02% among 320,000 | AID 540277; active means potentiation above 80%; inconclusive means 30% to 80%; inactive means below 30%; note: 0% is about no effect
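Fluo-8 calcium influx in TRPV1-expressing cells, kinetic read (ex 480/em 520 nm). Compound added and read 3 min for agonist activity, followed by capsaicin at EC20 final and 2 min further read for enhancement.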
Starred values were filed as active, the others as inactive; u = inconclusive; x = no result given; & = joins results of further samples; [ ] = another dose, or the depositor's remark. Compounds were not picked by outcome; 4.4% or so of the library scored in one or more.

SMILES	ClpP mod	PINK1 expr mod	Sfp PPTase inh	TRPML1 agonist	TRPML1 blocker	Menin MLL FP FL	TRPV1 PAM
O=C(Cc1ccccc1F)Nc1ccc(SC(F)F)cc1	x	-2.6%	2%	-0.3	-3	4.3	-10
C=CCOc1ccc(/C=C/C(=O)OCC(=O)N2CCC(c3ccccc3)=N2)cc1	-20%	2.1%	x	2.2	-4	x	-8
CCOC(=O)c1c(NC(=O)CSc2nnc(-c3c[nH]c4ccccc34)n2CCOC)sc2c1CCCCC2	-2.0%	-1.4%	-4%	0.2	-10	2.6	10
COc1cccc(N2C(=O)CC(Nc3ccc(N4CCOCC4)cc3)C2=O)c1 (configuration not stated)	-0.1%	2.5%[38.3 µM]	u	0.3	-4	3.1	5
Cc1ccc2c(c1)sc1nc(=O)n(-c3ccc(Cl)cc3)c(=O)n12	-1.5%&0.2%	-1.0%&7.7%	-3%	-0.9&0.5	12&1	1.4	-8
Cn1cccc1Cc1nnc(SCC(=O)Nc2ccc(F)cc2F)n1-c1ccc(F)cc1	15%	10%	-3%	1.7	-5	3.5	1
CCc1ccc(NC(=O)c2cnc3n(c2=O)CCS3)cc1	-9.7%	0.2%	13%	-0.7	3	3.0	-4
c1ccc(Nc2nc3ccccc3[nH]2)nc1	-1.4%	-0.2%	-1%	-0.4	-1	-1.8	18
C/C(Cn1nc([N+](=O)[O-])cc1C)=N\NC(=O)c1cccc(Br)c1	-4.2%	0.3%	-9%	0.9	-27	1.7	16
Cc1cccc(C(=O)N[C@H](C(=O)Nc2nc(C)cs2)C(C)C)c1	0.5%	2.2%	4%	0.2	19	4.9	13
COC(=O)C(Cc1ccccc1)NC(=O)CCc1c[nH]c2ccccc12 (configuration not stated)	x	-0.3%	-7%	0.9	0	-0.6	-18
NS(=O)(=O)c1ccc(N/C=C\C(=O)c2cccc3ccccc23)cc1	1.1%	-0.4%	3%	-0.9	-6	8.4	-7
O=[N+]([O-])c1ccc(COc2ccccc2/C=N/O)cc1	0.5%	6.4%	3%	2.7	3	4.6	9
Clc1ccc(CN2CCCCCC2)cc1Cl	-3.6%	1.9%	23%	-1.1	4	0.8	-1
CCN(CC)c1ccc(NC(=S)NC(=O)c2ccco2)cc1	0.5%	1.5%	35µM*	1.3	-12	-0.4	-10
Cc1nnc(NC(=O)C2CC(=O)N(c3ccc4c(c3)OCCO4)C2)s1 (configuration not stated)	-0.7%	0.4%	x	0.1	-11	x	-13
COc1ccccc1Cc1nc2ccccc2nc1SCC(=O)Nc1cccc(Cl)c1C	-0.4%	28%	x	-0.2	-10	x	x
Cc1ccc(CC(=O)N2CCN(c3ccccc3F)CC2)cc1	2.4%	0.7%	-22%	0.6	-12	-0.8	-6
COc1cccc(/C=N/NC(=O)c2c(-c3ccccc3)noc2C)c1OC	u	-1.6%	x	0.1	-14	x	x
O=C(c1ccc2c(c1)CCC2)N1CCN(Cc2ccccc2)CC1	0.2%	3.1%	x	0.1	5	x	x
COc1ccc(CN(C)C(=O)CNC(=O)c2cccs2)c(OC)c1	-0.6%	-1.1%	x	-0.6	7	x	1
COc1ccc(N2CCN(CCCNC(=O)c3nnc(Cc4ccc(F)cc4)o3)CC2)cc1	-0.4%	-1.8%	x	0.0	3	x	x
CC(C)C(=O)Nc1ccc2c(c1)nc1n2CCSC1	1.8%	-1.2%	-36%	-1.1	8	0.1	28
COc1cc(OC)cc(-c2noc([C@@H]3O[C@H](CO)[C@@H](O)[C@H]3O)n2)c1	-6.5%	0.7%	x	0.1	-4	x	x
CCOC(=O)C(C)Oc1cccc2c(=O)n(CC(=O)Nc3cccc(OC)c3)ccc12 (configuration not stated)	5.4%	0.0%	19%	0.6	11	1.6	8

Retrieved by structure from the list above, 2 records:
SMILES	ClpP mod	PINK1 expr mod	Sfp PPTase inh	TRPML1 agonist	TRPML1 blocker	Menin MLL FP FL	TRPV1 PAM
Cn1cccc1Cc1nnc(SCC(=O)Nc2ccc(F)cc2F)n1-c1ccc(F)cc1	15%	10%	-3%	1.7	-5	3.5	1
Clc1ccc(CN2CCCCCC2)cc1Cl	-3.6%	1.9%	23%	-1.1	4	0.8	-1

Continued.
SMILES	ClpP mod	PINK1 expr mod	Sfp PPTase inh	TRPML1 agonist	TRPML1 blocker	Menin MLL FP FL	TRPV1 PAM
CC1Cn2c(nc(=O)c3c2NCN(CCc2ccccc2)C3)S1 (configuration not stated)	x	-1.6%	1%	-0.7	-2	-2.2	3
CCn1c2ccccc2c2cc(CC(N)=O)ccc21	u	0.5%	3%	0.2	u	0.9	-12
Cc1ccc(C(=O)Nc2ccc(S(=O)(=O)Nc3ncccn3)cc2)cc1[N+](=O)[O-]	1.7%	0.4%	-3%	-0.9	-7	-2.7	30
NC1=NC(=O)/C(=C/c2cccs2)S1	1.5%	-0.9%[38.3 µM]	4%	-0.6	4	0.3	x
C#Cc1ccc(NC(=O)C2(C)CCN2C(=O)Cc2ccc(C(C)C)cc2)cc1 (configuration not stated)	-0.1%	14%	x	0.3	x	x	x
Cc1ccccc1N=CC1=C(O)c2ccccc2C1=O	x	2.3%	-1%	0.2	32	0.4	-11
O=C(NCc1ccc2c(c1)OCO2)c1cc(-c2ccccn2)nc2ccccc12	x	3.3%	1%	2.7	-1	-0.8	0
CCOC(=O)c1sc2nc3c(SCC(=O)O)cc(C(=O)c4cc(F)ccc4O)cn3c(=O)c2c1C	-4.9%	-0.6%	u	0.6	-5	9.7	-8
CCc1ccc(-c2cc(C)no2)cc1S(=O)(=O)N1CC(=O)Nc2ccccc21	1.9%	0.6%	17%	0.3	19	-0.9	-4
O=C(COc1ccccc1Cl)Nc1cccc(S(=O)(=O)NC2=NCCCCC2)c1	0.7%	2.2%	x	-0.3	3	x	23
Cc1ccc(OCCNC(=O)c2ccc(C)cc2)cc1	2.5%	1.9%	9%	x	x	2.6	-11
COc1ccc(C(=O)COC(=O)c2nn(C)c(=O)c3ccccc23)c(OC)c1	-0.6%	0.7%	11%	3.0	-13	-3.0	8
CCOC(=O)C1CCCN(C2=NC(=O)/C(=C/c3ccc(OC)cc3OC)S2)C1 (configuration not stated)	-4.3%	-1.8%	45µM*	1.4	-7	u	-4
CC(=O)C1=C(C)NC(=O)NC1c1cccc([N+](=O)[O-])c1O (configuration not stated)	x	0.7%	6%	-0.5	-7	-1.3	-12
Cc1ccccc1C(=O)Nc1nnc(-c2cccnc2)o1	x	-0.2%	-12%	1.2	-23	2.4	-5
CN(C)c1ccc(/C=N/NC(=O)C(=O)/C=C2\NC3(CCCC3)Cc3ccccc32)cc1	-5.4%	-0.6%	-9%	2.2	7	x	-2
CCc1ccc(C(=O)NCc2cnn(C)c2)s1	x	-0.7%	-8%	-0.6	-7	-0.1	-1
Cc1ccc(S(=O)(=O)N2CCOCC2)cc1C(=O)N1CCOCC1	-0.5%	-0.7%	6%	-0.5	16	0.0	22
CCC(C)(C)C1CCc2c(sc(NC(=O)C3c4ccccc4Oc4ccccc43)c2C(N)=O)C1 (configuration not stated)	-2.0%	-0.7%	x	-0.2	-2	x	x
C/C(=N\NC(=O)c1cccnc1)c1nnn(-c2nonc2N)c1C	0.0%	1.1%	6%	0.2	-8	-2.1	-1
O=C(NCc1ccccc1)NC1(C(=O)N2CCN3CCCC3C2)CCCCC1 (configuration not stated)	-4.3%	0.7%	19%	-0.1	-5	9.6	4
COc1cccc(/C=N/NC(=S)NCCc2ccccc2)c1	x	2.9%	0%	0.9	-9	3.3	18
CC(/C=N/n1c(-c2cccnc2)n[nH]c1=S)=C\c1ccco1	-3.0%	-0.9%	-27%	-0.3	27	3.1	-6
CCOc1cc(C(=O)Nc2ccc3c(c2)OCO3)ccc1OCCOc1ccccc1Cl	0.0%	9.5%	14%	0.2	-5	2.1	-3
C/C(=N\OC(=O)NC(C)C)c1sc(-c2ccccc2)nc1C	-8.7%	-0.7%	14%	0.9	9	-1.3	2
CC(C)NC(=S)N=Nc1c(O)[nH]c2ccc(C(C)C)cc12	1.2%	7.6%	18%	1.5	1	-0.4	-4
CCOc1ccccc1C(=O)NC1CC2CCCC(C1)N2Cc1ccc(C)cc1 (configuration not stated)	1.4%	-0.9%	26%	0.1	-10	-2.4	1
CSc1nc(N)nc2c1ncn2CC(=O)NCc1ccccc1	u	1.6%	x	-0.7	16	x	x

13 entries from above, with two lines to a compound:
Second line of a record: ClpP mod	PINK1 expr mod	Sfp PPTase inh	TRPML1 agonist	TRPML1 blocker	Menin MLL FP FL	TRPV1 PAM
> O=C(Cc1ccccc1F)Nc1ccc(SC(F)F)cc1
  x	-2.6%	2%	-0.3	-3	4.3	-10
> C=CCOc1ccc(/C=C/C(=O)OCC(=O)N2CCC(c3ccccc3)=N2)cc1
  -20%	2.1%	x	2.2	-4	x	-8
> CCOC(=O)c1c(NC(=O)CSc2nnc(-c3c[nH]c4ccccc34)n2CCOC)sc2c1CCCCC2
  -2.0%	-1.4%	-4%	0.2	-10	2.6	10
> COc1cccc(N2C(=O)CC(Nc3ccc(N4CCOCC4)cc3)C2=O)c1 (configuration not stated)
  -0.1%	2.5%[38.3 µM]	u	0.3	-4	3.1	5
> Cc1ccc2c(c1)sc1nc(=O)n(-c3ccc(Cl)cc3)c(=O)n12
  -1.5%&0.2%	-1.0%&7.7%	-3%	-0.9&0.5	12&1	1.4	-8
> Cn1cccc1Cc1nnc(SCC(=O)Nc2ccc(F)cc2F)n1-c1ccc(F)cc1
  15%	10%	-3%	1.7	-5	3.5	1
> CCc1ccc(NC(=O)c2cnc3n(c2=O)CCS3)cc1
  -9.7%	0.2%	13%	-0.7	3	3.0	-4
> c1ccc(Nc2nc3ccccc3[nH]2)nc1
  -1.4%	-0.2%	-1%	-0.4	-1	-1.8	18
> C/C(Cn1nc([N+](=O)[O-])cc1C)=N\NC(=O)c1cccc(Br)c1
  -4.2%	0.3%	-9%	0.9	-27	1.7	16
> Cc1cccc(C(=O)N[C@H](C(=O)Nc2nc(C)cs2)C(C)C)c1
  0.5%	2.2%	4%	0.2	19	4.9	13
> COC(=O)C(Cc1ccccc1)NC(=O)CCc1c[nH]c2ccccc12 (configuration not stated)
  x	-0.3%	-7%	0.9	0	-0.6	-18
> NS(=O)(=O)c1ccc(N/C=C\C(=O)c2cccc3ccccc23)cc1
  1.1%	-0.4%	3%	-0.9	-6	8.4	-7
> O=[N+]([O-])c1ccc(COc2ccccc2/C=N/O)cc1
  0.5%	6.4%	3%	2.7	3	4.6	9
